# Assay outcomes (PubChem)
# Polio RdRp inh: poliovirus RdRp elongation inhibitors, primary screen, biochemical, fluorescence polarization, total intensity. AID 588519, 2011. 0.66% of 150,000 active. Genome polyprotein (Poliovirus type 1 (strain Mahoney)), P03300. poliovirus polymerase elongation; active compounds read low. % elongation, % (compound at 16.7 µg/mL); in the data active = % elongation below about 90%; also: some results filed as inactive read as strong as hits
# Target sequence (P03300 1749-2209 limits assumed): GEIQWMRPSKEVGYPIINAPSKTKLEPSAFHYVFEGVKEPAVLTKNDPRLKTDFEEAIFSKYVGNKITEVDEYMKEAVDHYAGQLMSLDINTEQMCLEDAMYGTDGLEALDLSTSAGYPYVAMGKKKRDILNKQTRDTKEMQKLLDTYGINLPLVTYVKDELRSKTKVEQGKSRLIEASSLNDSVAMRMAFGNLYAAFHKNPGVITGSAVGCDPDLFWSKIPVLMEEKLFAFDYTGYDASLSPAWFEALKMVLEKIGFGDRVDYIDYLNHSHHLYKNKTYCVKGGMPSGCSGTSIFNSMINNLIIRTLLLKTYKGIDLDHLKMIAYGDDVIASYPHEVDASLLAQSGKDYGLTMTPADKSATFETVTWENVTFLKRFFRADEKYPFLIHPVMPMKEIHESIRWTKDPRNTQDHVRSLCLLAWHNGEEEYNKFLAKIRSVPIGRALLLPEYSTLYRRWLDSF
# Mtb MbtI inh: MbtI salicylate synthase inhibitors, primary screen, biochemical, fluorescence intensity | 0.89% of 100,000 active | purified MbtI enzyme, fluorescence intensity read-out | inhibition, %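 (about 17 µg/mL by stock and volumes)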 | AID 493033, 2011;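 active = above 50% in both replicates, above 80% if mildly self-fluorescent; inactive = the rest, strongly fluorescent compounds included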;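 also: 0% = mean of negative and 100% = mean of positive controls; one replicate is shown; some compounds called inactive have numbers as strong as hits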
# Target sequence (P9WFX0 whole entry, looked up): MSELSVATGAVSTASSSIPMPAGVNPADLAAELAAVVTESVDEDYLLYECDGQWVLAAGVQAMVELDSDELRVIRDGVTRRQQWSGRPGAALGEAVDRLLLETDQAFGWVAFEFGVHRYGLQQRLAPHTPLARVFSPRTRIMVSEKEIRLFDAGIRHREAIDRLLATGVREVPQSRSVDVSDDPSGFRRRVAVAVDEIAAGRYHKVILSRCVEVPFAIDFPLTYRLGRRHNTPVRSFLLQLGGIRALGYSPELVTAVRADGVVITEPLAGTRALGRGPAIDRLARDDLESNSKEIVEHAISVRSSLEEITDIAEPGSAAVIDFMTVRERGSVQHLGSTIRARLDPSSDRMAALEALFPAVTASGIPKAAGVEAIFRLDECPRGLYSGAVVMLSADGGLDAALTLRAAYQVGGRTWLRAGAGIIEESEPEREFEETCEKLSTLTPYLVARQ
# Mtb MenB inh: M. tuberculosis MenB inhibitors, primary screen, biochemical, absorbance. 1,4-dihydroxy-2-naphthoyl-CoA synthase (Mycobacterium tuberculosis (strain ATCC 25618 / …. MenB enzyme assay, absorbance read-out; some hits fall short of the stated cut. AID 540299, 2011. 0.43% of 100,000 active. inhibition, %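 (about 12 µg/mL by stock and volumes)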;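 active = mean of two replicates above 30%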;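 also: 0% = no compound and 100% = wells with inactive enzyme; the first replicate is given; strong numbers were not always called active; inactives centre near -10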
# Polio RdRp inh intensity: further read-out of Polio RdRp inh, marked with its call; % elongation; measured here: total intensity read-out; formula for this scale not given here;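 total fluorescence in place of polarization; lower means less elongation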
# The depositor's hits bear a star; x = not tested or not shown; & = joins results of further samples.
SMILES,Polio RdRp inh,Polio RdRp inh intensity,Mtb MbtI inh,Mtb MenB inh
COC(=O)c1sc(N)c(C(=O)OC)c1COc1ccccc1C#N,113,114,-5,-6
O=C(COC(=O)c1ccc(S(=O)(=O)NCc2ccco2)cc1)NCc1ccco1,97,90,-9,-36
Cc1ccc(N2C(=O)c3ccccc3NC2c2ccc(C)o2)cc1 (configuration not stated),105,104,100,1
CCCN(CCC)S(=O)(=O)c1ccc(C(=O)Nc2ccc3sc(SC)nc3c2)cc1,99,102,-21,2
COc1ccc(N(/N=C2\Oc3ccc4c(C)cc(=O)oc4c3C2=O)C(C)=O)cc1,108,110,x,-18
CCOC(=O)C1=C(C)NC(=O)NC1c1cn(-c2ccccc2)nc1C (configuration not stated),100,94,-1,-21
Cc1ccccc1C(=O)Nc1cc2c(s1)CCCC2,108,111,x,-8
O=C1NC2CC3CC(C2)CC1C3,98,100,7,12
COc1cccc(CNc2cccc3cccnc23)c1O,104,101,-3,-56
CC(=O)OC12CC3CC(C1)C(=O)C(C3)C2,99,103,1,8
O=C(Oc1ccc(Cl)cc1Cl)c1ccc(Br)o1,103,107,-20,-14
COC(=O)C1CCN(C(=O)CN(C)Cc2ccc(C(C)(C)C)cc2)CC1,103,94,-10,-9
CC1C(c2ccccc2)O/C(=N\S(=O)(=O)c2ccc(Cl)cc2)N1C (configuration not stated),105,109,-8,3
O=C(COc1ccc(Cl)cc1Cl)N=P(C1CCCCC1)(N1CCOCC1)N1CCOCC1,101,101,54,9
CCOC(OCC)P(=O)(C(C)C)C(C)C,99,101,-13,-1
Cc1nnn(C23CC4CC(CC(C(=O)NC5CCCCCC5)(C4)C2)C3)n1,101,105,-1,-9
O=C1CSc2nnc(C3COc4ccccc4O3)n2N1 (configuration not stated),95,91,85*,-55
COC(=O)/C(=C/c1ccc2c(c1)OCO2)NC(=O)c1ccco1,116,135,19,-3
COC(=O)c1cc(NC(=O)COC(=O)CN2C(=O)C3CC=CCC3C2=O)cc(C(=O)OC)c1 (configuration not stated),103,102,-12,-11
COc1cc(C2CC(=O)Nc3nc(SC)[nH]c(=O)c32)ccc1OCC(N)=O (configuration not stated),99,103,-11,-2
N#CCCC1CCCCCCCCCCC1=O (configuration not stated),103,105,-2,-35
COc1ccccc1N1CCN(C(=O)C2CCCN2C(N)=O)CC1 (configuration not stated),104,102,3,11
CC1CCC(NC(=O)c2ccc(CSc3nc4ccncc4[nH]3)cc2)CC1 (configuration not stated),104,102,9,-17
O=c1cc(Cn2cc(C(F)(F)F)cc(Cl)c2=O)[nH]c(=O)[nH]1,107,113,-2,-10
O=c1nc(SCCc2ccccc2)nc2ccccn12,105,96,-24,-25
COc1ccc(Cc2nc(S(=O)(=O)c3ccc(C)cc3)c(N3CCC(C)CC3)o2)cc1,100,105,0,-35
O=C(CSc1ncccn1)N1CCCC1,102,104,3,7
COc1ccc(C2C=C(C)Nc3nc4ccccc4n32)cc1 (configuration not stated),103,106,-10,x
CC(=O)N/C(=C\c1ccccc1)C(=O)NCc1ccco1,101,102,-2,11
CC1N(C)c2cc(NC(=O)c3ccco3)c(P(=O)(Nc3cccc(C(F)(F)F)c3)N3CCOCC3)cc2C1(C)C (configuration not stated),107,106,-3,-31
CC(=O)NCc1ccc(C(=O)CSc2nnc(-c3cccs3)n2C2CC2)s1,112,114,0,-12
CC(=O)N(CCCCN1C(=O)c2ccccc2C1=O)c1ccc(Cl)cc1,103,102,-14,-24
CN=C1c2cc3cc(OC)ccc3n2CCN1Cc1ccccc1,102,100,14,-1
CCOC(=O)c1[nH]c(COC(=O)[C@H](Cc2ccccc2)NC(=O)c2ccco2)c(C(=O)OCC)c1C,105,101,-7,-25
Cc1nc2ccccc2nc1C(=O)NCCN1CCN(c2ccccc2)CC1,100,104,4,19
CC(Sc1nnnn1C)C(=O)C12CC3CC(CC(C3)C1)C2 (configuration not stated),106,105,-12,-36

# A run of entries of the results above:
SMILES,Polio RdRp inh,Polio RdRp inh intensity,Mtb MbtI inh,Mtb MenB inh
CC(=O)NCc1ccc(C(=O)CSc2nnc(-c3cccs3)n2C2CC2)s1,112,114,0,-12
CC(=O)N(CCCCN1C(=O)c2ccccc2C1=O)c1ccc(Cl)cc1,103,102,-14,-24
CN=C1c2cc3cc(OC)ccc3n2CCN1Cc1ccccc1,102,100,14,-1
CCOC(=O)c1[nH]c(COC(=O)[C@H](Cc2ccccc2)NC(=O)c2ccco2)c(C(=O)OCC)c1C,105,101,-7,-25
Cc1nc2ccccc2nc1C(=O)NCCN1CCN(c2ccccc2)CC1,100,104,4,19
CC(Sc1nnnn1C)C(=O)C12CC3CC(CC(C3)C1)C2 (configuration not stated),106,105,-12,-36

# Carrying on:
SMILES,Polio RdRp inh,Polio RdRp inh intensity,Mtb MbtI inh,Mtb MenB inh
CN(C(=O)c1cc2ccccc2o1)c1c(N)n(Cc2ccccc2)c(=O)[nH]c1=O,107,112,-136,-13
O=C(c1ccc(CS(=O)c2ccccc2)o1)N1CCN(c2ccccc2F)CC1 (configuration not stated),100,95,3,5
CC(=O)N1CCN(C(=O)CSc2nc3ccc(Cl)cc3c(=O)n2-c2ccc(F)cc2F)CC1,x,x,17,-2
CCN(CC)C/C=C/c1c(F)c(F)c(NCCOC)c(F)c1F,98,104,-6,-24
CN1CCCc2cc(/C=C3\Cc4ccccc4C3=O)ccc21,76,194,20,-17
O=S(=O)(Nc1nc2ccccc2nc1NCCN1CCOCC1)c1ccc2c(c1)OCCO2,100,99,-6,-38
Cc1ccccc1NC(=O)CSC1=NC(=O)CC(=O)N1Cc1ccccc1,101,102,-2,-153
Cc1cc(NC(=O)/C(C#N)=C/c2sc(N3CCOCC3)nc2-c2ccccc2)n(-c2ccccc2)n1,45,245,0,-27
CC(C)Oc1ccccc1/C=N/O,103,100,99,28
Cc1cc(C(=O)CN2CC(=O)Nc3ccccc32)c(C)n1-c1c(C)n(C)n(-c2ccccc2)c1=O,99,107,10,-12
CCCC(=O)N1CCN(c2nc(Cc3ccccc3)c3c(c2C#N)CC(C)(C)OC3)CC1,103,107,167,-11
O=C(O)CCc1nnc2ccc(N3CCCC3)nn12,103,109,-7,-5
Cc1ccccc1N1C(=O)NC(=O)C(CCc2ccncc2)(Cc2ccc3c(c2)OCO3)C1=O (configuration not stated),102,101,-3,2
Cc1cc(-c2csc(N)n2)c(C)n1C(C)C,101,105,17,-34
C=C1CC[C@@H](O)C/C1=C/C=C1\CCC[C@]2(C)[C@@H]([C@H](C)/C=C/[C@@H](C)C(C)C)CC[C@@H]12,99,100,1,-2
O=C(NCCC(=O)N1CCCc2ccccc21)c1ccco1,101,98,21,-12
Cc1cc(C)n2nc(CNC(=O)Nc3ccccc3Cl)nc2n1,104,103,-3,-1
CC1=CN2C(=N)/C(=C/c3cc(C)n(Cc4ccccc4)c3C)C(=O)N=C2S1,102,108,8,-24
CCOc1cc2c(cc1OCC)C1C(C(=O)NCCC(C)C)c3ccccc3C(=O)N1CC2 (configuration not stated),102,95,13,-12
Fc1ccc(N2CCN(CCCNc3nc(-c4ccccc4F)no3)CC2)cc1,102,102,-15,-35
CCOc1cc2[nH]c(=S)n(CCCC(=O)N3CCCCCC3)c(=O)c2cc1OCC,101,96,9,13
NC(=O)C1CCN(Cc2c(O)ccc3cc(Br)ccc23)CC1,102,103,36,-6
O=S(=O)(Cc1nc(-c2ccccc2Cl)cs1)c1cccs1,107,113,-4,-16
COc1cc(C(=O)NCc2nnc(SCC(=O)Nc3cc(C(F)(F)F)ccc3Cl)o2)cc(OC)c1OC,98,103,-1,-1

# Structures listed so far that contain a cyano group:
SMILES,Polio RdRp inh,Polio RdRp inh intensity,Mtb MbtI inh,Mtb MenB inh
COC(=O)c1sc(N)c(C(=O)OC)c1COc1ccccc1C#N,113,114,-5,-6
N#CCCC1CCCCCCCCCCC1=O (configuration not stated),103,105,-2,-35
Cc1cc(NC(=O)/C(C#N)=C/c2sc(N3CCOCC3)nc2-c2ccccc2)n(-c2ccccc2)n1,45,245,0,-27
CCCC(=O)N1CCN(c2nc(Cc3ccccc3)c3c(c2C#N)CC(C)(C)OC3)CC1,103,107,167,-11

# Some of the entries so far, with two lines to a compound:
# Every second line gives: Polio RdRp inh, Polio RdRp inh intensity, Mtb MbtI inh, Mtb MenB inh
Cc1cc(-c2csc(N)n2)c(C)n1C(C)C
    101, 105, 17, -34
C=C1CC[C@@H](O)C/C1=C/C=C1\CCC[C@]2(C)[C@@H]([C@H](C)/C=C/[C@@H](C)C(C)C)CC[C@@H]12
    99, 100, 1, -2

# Following part:
SMILES,Polio RdRp inh,Polio RdRp inh intensity,Mtb MbtI inh,Mtb MenB inh
OCCN=c1cc(-c2ccccc2)oc2ccc(Cl)cc12,99,100,14,-6
COc1ccc(Cl)cc1NC(=O)CSc1nc2nccnc2c(=O)n1Cc1ccc(C)cc1,106,106,-9,-8
COc1cccc2cc(C(=O)C3=C(O)C(=O)N(CCCn4ccnc4)C3c3ccc(F)cc3)oc12 (configuration not stated),102,101,6,-34
CCNc1nc(OC)nc(Oc2ccc(OCC(=O)OC)nn2)n1,102,100,-10,-5
CCNC(=S)N1CCN(CCN=CC2=C(O)CC(c3ccccc3)CC2=O)CC1 (configuration not stated),102,101,22,10
CCn1c(=O)c2c(c3ccccc31)Oc1ccc(C)cc1N=C2C,130,158,x,-18
Cc1ccsc1CNC(C)c1ccccc1 (configuration not stated),107,105,x,-1
Cc1nnc2sc(-c3cccc(NC(=O)c4ccco4)c3)nn12,98,100,16,0
O=C(CCC1CCCCC1)Nc1ccc(S(=O)(=O)Nc2ncccn2)cc1,102,104,-4,-20
CCCCCC1C/C(=N\O)C=C(C)C1C(=O)OC (configuration not stated),102,113,-1,-20
CCOc1cccc(C(=O)NN2CCOCC2)c1,99,100,3,-12
Cc1nn2c(=O)cc(CSCc3ccco3)nc2s1,99,100,9,5
COc1ccc(CCNC(=O)CSc2nc(C)c(C)c(=O)[nH]2)cc1OC,102,100,-7,1
Cn1c(SCC(=O)c2ccc3c(c2)OCCO3)nnc1-c1ccc2ccccc2c1,94,103,-4,-12
CC(C)(C#CC(O)(c1ccccc1)c1ccccc1)N1CCCCC1,102,101,-1,-13
O=C(NCc1n[nH]c(=O)c2ccccc12)C1CC(=O)N(c2ccccc2)C1 (configuration not stated),100,104,3,-32
Cc1ccc(/C=C/C(=O)NCc2ccncc2)cc1,100,103,11,-23
C=C1C(C(=O)N2c3ccccc3CC2C)C1C(=O)N1c2ccccc2CC1C (configuration not stated),99,107,40,-5
Cc1ccc(NC(=O)CNS(=O)(=O)c2ccccc2)c(C(=O)c2ccccc2)c1,103,105,-24,-10
Cc1csc(C(C#N)C(=O)CSc2nnc(NCc3ccccc3)s2)n1 (configuration not stated),98,102,4,0
CCc1ccc(S(=O)(=O)N2CC(=O)Nc3ccccc32)cc1,102,102,-10,-10
COc1cnc(NS(=O)(=O)c2ccc(N)cc2)nc1,99&101,101&101,-6&-16,4&3
O=C(/C=C/c1ccc(Br)o1)OCC(=O)c1ccccc1,101,106,6,6
CCOc1cc2[nH]c(=O)n(Cc3cccc(OC)c3)c(=O)c2cc1OCC,103,107,8,11
